ClpP mod: qHTS Assay for Activators of ClpP; AID 651965, 2013; ATP-dependent Clp protease proteolytic subunit (Bacillus subtilis (strain 168)), P80244; 340,000 tested, 1.9% active; purified B. subtilis ClpP, FRET peptide cleavage, 20 min; Potency, µM (top dose mostly 57.5 µM), inactives show top-dose activity change, negative = active; active = well fitted falling curve with a large enough effect; inconclusive = small, poorly fitted or top-dose-only effect; inactive = no such curve, though single readings can be large or run the other way; also: potency is read from the fitted curve at half-maximal effect; the source files actives as falling curves though it sought activators and does not explain the sign; nearly all actives have a fitted effect of over 65% in size; many hits overshoot -100%
Target sequence (P80244 whole entry, looked up): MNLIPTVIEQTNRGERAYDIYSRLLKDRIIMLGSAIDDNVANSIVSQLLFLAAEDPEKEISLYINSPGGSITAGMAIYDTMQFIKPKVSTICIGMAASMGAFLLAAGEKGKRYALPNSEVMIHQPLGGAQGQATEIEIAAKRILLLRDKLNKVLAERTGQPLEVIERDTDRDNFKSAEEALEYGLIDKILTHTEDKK
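FRET quenching reversal measured ClpP activation: 10 microg/mL B. subtilis ClpP at pH 8 with the FRET-FV decapeptide, read at 430 nm after 320 nm excitation. The 20-min minus 0-min signal was scaled between DMSO/no-enzyme wells and ADEP (5.8 microM final).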
Menin-MLL FL inh: displaces fluorescein MLL peptide from human menin; 290,000 tested, under 10 active; Fluorescence polarization, fluorescein-MLL peptide displacement from menin; AID 1766; FP activity change, % at 61.4 µM; inconclusive = falling polarisation curve, or a change in total fluorescence; inactive = total fluorescence flat and polarisation flat or rising; no compound was filed as active; the % refers to the polarisation; negative = inhibition;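 also: % of control where 0% means no effect; inhibitors lower the polarisation; unlabelled MLL peptide was the positive control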
D2 ag: activates the human D2 dopamine receptor; P14416; DiscoveRx PathHunter D2 beta-arrestin, luminescence, 90 min; 100% = 57 uM dopamine signal; activation, % (concentration not given with the values); 360,000 tested, 0.084% active; AID 624465; in the data active = activation above about 40%; inconclusive = about 15% to 40%; inactive = below about 15%; also: compound concentration not given in the record; the text of the record calls up to 30% inactive
Target sequence (P14416 whole entry, looked up): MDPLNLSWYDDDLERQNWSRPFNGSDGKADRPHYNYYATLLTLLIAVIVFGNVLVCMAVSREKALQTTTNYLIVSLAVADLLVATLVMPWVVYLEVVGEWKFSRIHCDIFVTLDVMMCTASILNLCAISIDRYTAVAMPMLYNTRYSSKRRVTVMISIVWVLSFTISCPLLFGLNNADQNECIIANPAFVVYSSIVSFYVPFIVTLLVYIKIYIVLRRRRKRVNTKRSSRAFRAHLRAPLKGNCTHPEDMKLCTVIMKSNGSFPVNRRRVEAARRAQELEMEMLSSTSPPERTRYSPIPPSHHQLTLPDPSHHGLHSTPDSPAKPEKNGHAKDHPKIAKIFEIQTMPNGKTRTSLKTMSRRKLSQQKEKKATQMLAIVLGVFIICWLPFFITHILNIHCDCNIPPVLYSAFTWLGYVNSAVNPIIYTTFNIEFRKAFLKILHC
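DiscoveRx PathHunter D2 beta-arrestin cells (2,100/well) attached overnight, then compound-stimulated 90 min at 37 C in HBSS/10 mM HEPES/0.1% Tween-20 buffer; beta-galactosidase complementation read by luminescence after 1 h at ambient temperature. Dopamine 57 uM final (EC100) as control.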
gsp antag: gsp mutant antagonism; gsp-mutant cells, cAMP HTRF, 30 min; control for the full effect not named in the record; AID 624288; 340,000 tested, 0.4% active; Potency, µM (series often up to 76.9 µM), for the others: at the highest dose activity change, negative = inhibition, usual class: inhibitors; active = falling curve of any shape with a large fitted effect; inconclusive = falling curve, mostly with a smaller effect; inactive = flat or rising curve; cell line not stated here;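 also: intracellular cAMP measured with PDE inhibitor Ro 20-1724 present during compound exposure; potency is read from the fitted curve at half-maximal effect; % is scaled to controls: 0 for no effect and ±100 for the full control effect; nearly all actives have a fitted effect of over 65% in size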
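HTRF cAMP measurement after 30 min RT detection following 30 min, 37C compound treatment alongside […] (added as 300 uM solution) in G418-selected cells seeded at 2000/well and grown 16–24 h.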
Sfp PPTase inh: blocks B. subtilis Sfp PPTase activity; 310,000 tested, 3.5% active; AID 1490; Potency, µM, for inactives: max response, negative = inhibition, usual class: inhibitors; Q9F4F7; Biochemical Sfp PPTase activity, qHTS; active = well fitted inhibition curve with a large enough effect; inconclusive = small, poorly fitted or top-dose-only effect, or another doubt; inactive = no such curve, though single readings can be large or run the other way;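 also: the enzyme is Sfp with the accession as filed and its product quenches rhodamine fluorescence; potency is read from the fitted curve at half-maximal effect; 0% = enzyme reaction without inhibitor and -100% = no enzyme wells; top concentration of the series not given in the record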
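After 15 min at room temperature with compound, 15 nM Sfp received 5 uM rhodamine-CoA plus 12.5 uM BHQ-2-ybbR (50 mM Hepes pH 7.6, 10 mM MgCl2). Rate came from the fluorescence difference over 30 min, ex 525/em 598 nm.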
gsp agonist: activates gsp, the McCune-Albright syndrome mutation; gsp mutant cells, cAMP HTRF, 30 min; control for the full effect not named in the record; Potency, µM (titrated, usually from 76.9 µM), for inactives: top-dose activation (cAMP increase), most hits filed as activators; 340,000 tested, 0.13% active; AID 624287; active = well fitted activation curve with a large enough effect; inconclusive = small, poorly fitted or top-dose-only effect, or another doubt; inactive = no such curve, though single readings can be large or run the other way; cell line not stated here;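 also: phosphodiesterase inhibitor Ro 20-1724 added with compounds to block cAMP breakdown; potency is read from the fitted curve at half-maximal effect; nearly all actives have a fitted effect of over 60% in size; about a fifth of the inactives were tested at one dose only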
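Cells stably selected in G418 were plated at 2000/well, grown 16-24 hr, then given compounds in DMSO with the PDE inhibitor […] (300 uM solution added) for 30 min at 37C; cAMP was read by HTRF.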
PINK1 modulator: PINK1 expression modulation | PINK1 immunofluorescence, high-content cytometry, 24 h | Potency, µM (highest dose often 76.6 µM), for the others: top-dose activation (PINK1 increase), most hits filed as activators | 410,000 tested, 0.2% active | AID 624263; active = well fitted activation curve with a large enough effect; inconclusive = small, poorly fitted or top-dose-only effect; inactive = flat fitted curve, though single readings scatter; cell line not stated here;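 also: potency is read from the fitted curve at half-maximal effect; % of control where 0% means no effect; nearly all actives have a fitted effect of over 65% in size; a mitochondrial uncoupler was the plate control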
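PINK1 protein, normally rapidly degraded, was detected by immunofluorescence after 24 hour compound treatment of a stable cell line. Titration data (5 concentrations) came from laser-scanning cytometry, with CCCP-treated wells as controls.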
Starred values were filed as active, the others as inactive; ? = inconclusive; / = no result given; & = joins results of further samples; [ ] = dose if it differs, or a comment. Rows were taken by chance. Share with any hit: about 5.1%.

SMILES | ClpP mod | Menin-MLL FL inh | D2 ag | gsp antag | Sfp PPTase inh | gsp agonist | PINK1 modulator
CCOC(=O)c1sc2nc(C)nc(SCC(=O)NC3CCS(=O)(=O)C3)c2c1C (configuration not stated) | -9.2% | 13 | 3.0 | 10% | -97% | ? | 1.1%
O=C(CSc1nnc(-c2ccccn2)o1)Nc1ccccc1F | -3.1% | / | -2.0 | 6% | -17% | -27% | 1.6%
CCN1C(=O)[C@H]2[C@@H](c3ccc(C)cc3)N3C(=O)N(c4cccc(F)c4)C(=O)[C@@]3(Cc3ccc(Cl)cc3)[C@H]2C1=O | -5.8% | / | -6.4 | -12% | / | -3% | 2.2%
O=C(CN1CCOCC1)c1c[nH]c2ccccc12 | -7.0% | -4.4 | -2.4 | 4% | 14% | -1% | 0.3%
COc1ccc(C)cc1S(=O)(=O)N1CCN(C(=O)c2ncoc2-c2ccc(F)cc2)CC1 | / | 1.5 | -2.3 | -11% | 12% | -17%[15.4 µM] | 1.2%
CCCc1ccc(C(O)c2ncc(-c3ccc(C)cc3)[nH]2)cc1 (configuration not stated) | -0.2% | / | 3.0 | / | / | / | 17%
CC(=O)N1CC=C2C(C#N)=C(N)C(C#N)(C#N)C(CCc3ccccc3)C2C1 (configuration not stated) | -3.8% | 11 | -3.2 | -13% | -12% | -1% | 1.6%
CCOc1ncccc1C(=O)Oc1ccc2c(c1)OCO2 | 0.8% | 0.5 | -1.9 | -10% | 6% | 3% | 0.1%
COCCCNc1ccnc2c(Cl)cccc12 | -24% | 3.0 | 4.3 | -15% | 28% | 6% | 3.1%
CNc1ncncc1-c1ccc(C(=O)N(C)C)cc1 | / | -3.2 | / | / | -22% | / | 0.2%
O=C(COC(=O)/C=C/c1ccc(Cl)cc1Cl)Nc1ccc2c(c1)OCCO2 | -2.3% | -1.5 | -4.0 | -10% | 6% | 8%[15.4 µM] | 8.0%
Cc1ccc(-n2nnnc2SCC(=O)Nc2cc(C)on2)c(C)c1 | / | 2.6 | 2.9 | 6% | 0% | 11%[15.4 µM] | 3.7%
Cc1nc2c(OCc3ccc(F)c(F)c3)cccn2c1N(C)C(=O)CCC1CCCC1 | -1.6% | / | -4.3 | / | / | / | 19%
Cc1nc2cnc(N3CCNCC3)nc2n(Cc2cccs2)c1=O | / | 26 | / | / | 8% | / | -0.7%
COc1ccc(C2=NN(CCC(=O)NC3CCCCCC3)C(=O)CC2)cc1 | -0.2% | -2.4 | -1.5 | 5% | 15% | 0% | -0.7%
COC(=O)c1cn(Nc2ncc(C(F)(F)F)cc2Cl)c(=O)c2ccccc12 | -22% | 0.3 | 1.0 | -2% | 10% | -36%[inhibitor] | 1.0%
O=C(NCCc1c[nH]c2ccccc12)c1cc2ccccc2oc1=O | / | -2.9 | -2.1 | -7% | 14% | 1%[15.4 µM] | 3.4%
O=c1cc(CSc2ccccn2)[nH]c(=O)[nH]1 | 0.5% | 4.1 | -1.9 | -9%[15.4 µM] | 4% | -10% | -0.8%
COc1cc(-c2n[nH]c(=S)n2-c2ccc(C)cc2)cc(OC)c1OC | -23% | 10 | -2.9 | -8% | -6% | 14µM* | -1.2%
O=C1N(Nc2ccccc2)C(c2ccc(Br)cc2)C12CCCC2 (configuration not stated) | 0.6% | -0.3 | -1.4 | -17% | 10% | -26% | /
COC(=O)c1[nH]c2cc(OC)ccc2c1NC(=O)CCN1CCN(c2ccccc2)CC1 | -14% | 4.5 | -0.4 | 12% | -1% | 2% | -0.8%
O=C(Nc1ccc(OC(F)(F)F)cc1)c1ccc(-n2cncn2)nc1 | / | -1.9 | 1.7 | 2% | -12% | -5%[15.4 µM] | -0.7%
CC(C)(C)N(C(=O)Cn1nnc(-c2ccc(F)cc2)n1)C(C(=O)NC1CCCC1)c1ccncc1 (configuration not stated) | 4.3% | 1.3 | 8.5 | ? | 6% | -35%[inhibitor] | 1.3%
O=C1CCCN1CCCNc1ncccc1[N+](=O)[O-] | / | -3.9 | -4.3 | 6% | 18% | 1%[15.4 µM] | 2.5%
Cc1ccc(C)c(OCC(=O)Nc2cccc(C(=O)O)c2)c1C | 0.6% | 4.6 | -1.2 | -8% | 6% | -29% | /
The results go on.
SMILES | ClpP mod | Menin-MLL FL inh | D2 ag | gsp antag | Sfp PPTase inh | gsp agonist | PINK1 modulator
O=C(NCC(O)c1ccc2ccccc2c1)c1c(F)cccc1F (configuration not stated) | -0.2% | 4.3 | 5.1 | 5% | -2% | -21% | 10%
CCc1cc(=O)oc2cc(C)cc(OC(C)C(=O)NCCCN3CCCC3=O)c12 (configuration not stated) | 4.5% | / | 1.3 | -11% | 13% | 14% | -1.4%
CCOc1cc(N2CCOCC2)c(OCC)cc1NC(=O)COc1cccc(Cl)c1 | 1.9% | / | -6.4 | -12% | / | 1% | 11%
CCOC(=O)CSc1nnc(CNC(=O)c2ccc(OC)c(OC)c2)n1C | -5.4% | -2.3 | 1.0 | 5% | 2% | -30% | 1.6%[38.3 µM]
O=C(COc1ccc(F)cc1Cl)N1CCN(C(=O)c2cccs2)CC1 | 1.2% | / | -1.0 | 5% | / | -3% | 0.4%
Cc1cc(-c2ccccc2N)n[nH]1 | ? | 0.2 | -1.5 | -7% | 4% | 12% | 2.2%
Cc1cc(=O)oc2cc(OCC(=O)NCCc3nc4ccccc4[nH]3)ccc12 | ? | 5.7 | -0.3 | -5% | -19% | -11% | -4.6%[38.3 µM]
CCOc1cc(N2CCOCC2)c(OCC)cc1NC(=O)COC(=O)c1cc(C)cc(C)c1 | / | 0.2 | -3.8 | -13% | 9% | -2%[15.4 µM] | 16%
O=C(COc1ccccc1F)Nc1ccc(S(=O)(=O)N2CCCC2)cc1 | 1.6% | / | 0.4 | -6% | / | 8% | 0.8%
N#Cc1cccc(CSc2nnc(CCCO)n2-c2ccccc2)c1 | 0.7% | -1.6 | -3.6 | 2% | 17% | -15% | -0.4%
Cc1ccc2nc(C3CCCN(C(=O)NCc4ccccc4)C3)[nH]c2c1 (configuration not stated) | -0.8% | 2.3 | -2.6 | 3% | 19% | -6% | -0.1%[38.3 µM]
O=C(NCCc1nnc2ccc(SCC(=O)N3CCCC3)nn12)c1ccc(F)cc1 | -14% | 2.6 | -1.5 | 12% | 13% | ? | 1.5%
c1ccc(-c2ccc3sccc3n2)cc1 | -2.2% | / | -1.4 | -5% | / | / | 3.1%
C/C(Cl)=C\Cn1c(O)c(N=NC(N)=S)c2ccccc21 | / | 1.0 | -4.6 | / | -11% | -16%[15.4 µM] | 3.1%
CCOC(=O)C1CCN(C(=O)COC(=O)COc2ccccc2OC)CC1 | 0.9% | 1.5 | -2.9 | 11% | -1% | ? | 0.9%
COc1ccc(CCNS(=O)(=O)c2cc3c4c(c2)CC(=O)N4CCC3)cc1 | 0.6% | / | -2.9 | -16% | 2% | 1% | -0.7%
O=[N+]([O-])c1ccccc1S(=O)(=O)NC1CCCC1 | / | -0.2 | -5.2 | 7% | 12% | -1%[15.4 µM] | 0.4%
Cc1csc(NC(=O)C2CCN(S(=O)(=O)c3ccccc3)CC2)n1 | -11% | / | 1.6 | -8% | / | ? | 3.7%
O=C(CSc1nc(O)c(C2CCCCC2)c(=O)[nH]1)N1CCOCC1 | / | -2.4 | -1.8 | -10% | 6% | 8%[15.4 µM] | 0.1%
O=c1cc(CSc2nnc(-c3ccccc3)o2)c2ccccc2[nH]1 | 9.5% | -1.0 | -6.7 | -9% | 13% | -15% | 10%
NNc1ccccc1C(F)(F)F | 0.3% | -5.6 | 1.4 | 8% | 7% | 24%[15.4 µM] | 0.9%
CCc1cccc(C)c1NS(=O)(=O)c1c(C)nc2sccn2c1=O | -6.2%&-4.3% | 7.0 | -7.5 | -2% | 13% | 7% | 1.1%&0.8%
C=CCNc1ncnc2c1cnn2-c1ccc(C)cc1C | -20% | 2.4 | -0.1 | -2% | -9% | -10% | 0.2%
Cc1ccc(C(=O)NCN2CCN(c3ccc(F)cc3)CC2)cc1 | 0.3% | / | 1.4 | 1% | / | 2% | 0.6%
CCCn1c2ccccc2c2nnc(SCC(=O)Nc3c(C)n(C)n(-c4ccccc4)c3=O)nc21 | -2.4% | 4.4 | -0.8 | 5% | 1% | 3%[15.4 µM] | -0.3%
(cont.)
SMILES | ClpP mod | Menin-MLL FL inh | D2 ag | gsp antag | Sfp PPTase inh | gsp agonist | PINK1 modulator
Cc1[nH]c2ccccc2c1C(C[N+](=O)[O-])c1cccs1 (configuration not stated) | / | -1.3 | -4.7 | -6% | 7% | 2%[15.4 µM] | 3.9%
CCN1CCN(CCC(=O)Nc2cccc(C)c2)CC1 | / | 1.3 | 4.8 | 4% | 8% | -41%[inhibitor] | 1.7%
Cc1ccc(NC(=O)C2CC3CCC2C3)c(Br)c1 (configuration not stated) | -2.5% | -0.4 | 0.0 | -3% | 5% | -1% | 1.9%
S=C1NCC(c2ccccc2)S1 (configuration not stated) | / | / | -5.9 | 0% | / | 3% | -1.0%
CC1(c2ccc3ccccc3c2)NC(=O)N(CC(=O)N2CCCC(C(F)(F)F)C2)C1=O (configuration not stated) | -0.8% | / | -1.3 | 1% | / | 27% | 1.0%
S=C(NCCNC(=S)Nc1ccccc1)Nc1ccccc1 | 0.8% | -1.3 | -1.0 | 8% | 16% | -33%[inhibitor] | 0.8%
O=C(Cc1cccc(NC(=O)C2CCN(S(=O)(=O)c3cccc([N+](=O)[O-])c3)CC2)c1)Nc1cccc(C(=O)N2CCCCC2)c1 | -1.9% | / | 2.9 | 5% | / | / | -0.1%
CNc1snc(C)c1C(=O)OC(C)C(=O)NCc1ccccc1 (configuration not stated) | / | / | -1.8 | -4% | / | -1%[15.4 µM] | 0.4%
CC(NC(=O)COC(=O)C1CCCCC1)c1ccccc1 (configuration not stated) | -1.4% | / | 2.9 | 9% | / | 2% | -2.1%
COc1cccc(C(=O)Nc2cccc(S(=O)(=O)NC3=NCCC3)c2)c1 | -0.6% | / | -1.6 | 1% | / | ? | -0.3%
C=C(C)c1cccc(C(C)(C)NC(=O)N2CCCC(C(N)=O)C2)c1 (configuration not stated) | -2.1% | -3.3 | 0.0 | -1% | 7% | 6% | -0.4%
